Rango complex inh: qHTS Assay for Inhibitors of Rango (Ran-regulated importin-beta cargo) - Importin beta complex formation; Rango CFP/YFP FRET sensor + importin beta, 45 min; Potency, µM (highest dose often 92.2 µM), inactives show at the highest dose inhibition of complex formation; 340,000 tested, 0.031% active; AID 540263, 2011; active = rising FRET ratio curve, often small or poorly fitted; inconclusive = mostly compound fluorescence or quenching in the first reads; inactive = flat curves in all reads;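 note: potency is the fitted concentration of half-maximal effect; 0% = DMSO wells and 100% = buffer wells lacking importin beta; nearly all actives have a fitted effect of over 15% in size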
Target sequence (Q14974 whole entry, looked up): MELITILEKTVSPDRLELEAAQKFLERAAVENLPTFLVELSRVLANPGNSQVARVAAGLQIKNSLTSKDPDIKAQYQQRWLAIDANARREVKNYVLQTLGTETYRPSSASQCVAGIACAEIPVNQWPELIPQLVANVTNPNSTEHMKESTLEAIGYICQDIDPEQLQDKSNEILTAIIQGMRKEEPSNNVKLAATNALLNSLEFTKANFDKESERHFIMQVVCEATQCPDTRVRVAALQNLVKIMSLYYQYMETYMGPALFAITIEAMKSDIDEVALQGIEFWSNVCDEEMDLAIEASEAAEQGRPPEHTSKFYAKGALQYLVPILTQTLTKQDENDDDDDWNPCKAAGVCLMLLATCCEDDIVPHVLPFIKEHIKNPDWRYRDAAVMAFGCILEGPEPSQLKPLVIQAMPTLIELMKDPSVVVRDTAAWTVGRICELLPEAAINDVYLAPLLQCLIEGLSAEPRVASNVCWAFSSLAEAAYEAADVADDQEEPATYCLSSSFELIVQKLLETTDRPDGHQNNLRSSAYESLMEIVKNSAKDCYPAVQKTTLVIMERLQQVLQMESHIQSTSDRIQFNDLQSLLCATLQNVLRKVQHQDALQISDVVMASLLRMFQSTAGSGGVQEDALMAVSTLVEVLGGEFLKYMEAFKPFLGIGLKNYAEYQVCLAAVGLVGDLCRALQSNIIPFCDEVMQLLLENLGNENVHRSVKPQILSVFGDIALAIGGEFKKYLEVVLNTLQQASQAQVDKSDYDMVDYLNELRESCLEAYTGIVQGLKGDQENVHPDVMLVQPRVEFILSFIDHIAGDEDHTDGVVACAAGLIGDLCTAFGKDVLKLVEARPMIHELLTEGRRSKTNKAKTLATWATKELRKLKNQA
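FRET biosensor (snurportin 1 IBB flanked by EYFP and cerulean), 50 nM, with compound 5 min, then 0.125 microM importin beta in PBS, 1 mM DTT, 0.02% Tween-20, 0.1% BSA. CFP/YFP ratio read after 45 min at room temperature; pre-read flags interference.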
Rango release inh: qHTS Assay for Inhibitors of RanGTP induced Rango (Ran-regulated importin-beta cargo) - Importin beta complex dissociation; Snurportin-1 (Homo sapiens) + GTP-binding nuclear protein Ran (Homo sapiens) + Importin …; Biochemical FRET Rango-importin beta, RanGTP-induced dissociation; Potency, µM (doses to about 46.1 µM), for inactives: top-dose activity change, negative = inhibition; 340,000 tested, 0.071% active; active means falling FRET ratio curve, often poorly fitted, with flat reads before Ran was added; inconclusive means other falling curves, or compound fluorescence or quenching; inactive means flat or rising ratio curve;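 note: potency is the fitted concentration of half-maximal effect; % of control where 0% means no effect; nearly all actives have a fitted effect of over 45% in size; -100% = wells without RanGTP and RCC1; the record marks most hits as doubtful in a second field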
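Rango/importin beta premix (0.1/0.25 uM final), PBS + 1 mM DTT + 0.02% Tween-20 + 0.1% BSA; cpd 5 min RT; FRET pre-read; + RanGTP-RCC1 (0.6 uM Ran, 2 mM GTP, 0.2 uM RCC1); 45 min RT; FRET post-read, ex 430, em 486/530 nm.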
GLA inh pH 4.5: qHTS Assay for Inhibitors of Human alpha-Galactosidase at pH 4.5 | Alpha-galactosidase A (Homo sapiens), P06280 | purified enzyme, 4-MU-alpha-Gal fluorescence, pH 4.5 | activity change, negative = inhibition, % at 105 µM | 230,000 tested, under 10 active | AID 1467, 2008; inconclusive = small, poorly fitted or top-dose-only inhibition, or a rising curve; inactive = flat fitted curve, though single readings scatter; no compound was filed as active;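 note: 0% = full activity with enzyme and -100% = basal without enzyme; dose as in the result columns while the protocol names 77 µM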
miR-21 reporter: qHTS Assay for Modulators of miRNAs and/orActivators of miR-21; HeLa miR-21 FLuc reporter, luciferase, 48 h; Potency, µM (doses to about 38.3 µM), for inactives: at the top dose reporter change, positive = more light; 340,000 tested, under 10 active; AID 2288, 2010; active = well fitted rising curve with a large enough effect; inconclusive = small, poorly fitted or top-dose-only effect; inactive = no such curve, though single readings can be large or run the other way;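 note: % of control where 0% means no effect; miR-21 action dims this reporter so a rising signal means less miR-21 action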
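HeLa cells endogenously expressing miR-21, stably carrying CMV-driven firefly luciferase with a downstream miR-21 binding site, 2000 cells/well. Titrations up to approximately 40 uM, 48 hours; luciferase luminescence read.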
Active calls of the source: *; u = inconclusive; x = no result given. These rows are one share of the data; count on the stated rates, not on these rows.

Abbreviations – A = Rango complex inh; B = Rango release inh; C = GLA inh pH 4.5; D = miR-21 reporter
compound: O=C1NC2C(O)C(O)C(O)C(O)C2c2cc3c(c(O)c21)OCO3 (stereo not drawn)
  A: -1.2%; B: 2%; C: x; D: x

compound: O=[N+]([O-])c1ccc(N2CCCCC2)c2ncccc12
  A: 0.5%; B: -13%; C: -7; D: -20%

compound: O=C1NC(=O)C(=Cc2ccc(N3CCOCC3)o2)C(=O)N1
  A: u; B: -13%; C: -12; D: -2%

compound: CCCNC1=C(C)C(=O)C2=C(C1=O)C(COC(N)=O)[C@]1(OC)C3NC3CN21 (stereo partly drawn)
  A: -0.9%; B: -1%; C: -6; D: 7%

compound: COC1=CC(=O)OC(CCc2ccc3c(c2)OCO3)C1 (stereo not drawn)
  A: 0.4%; B: 6%; C: x; D: x

compound: COC(=O)C1=C(c2ccccc2OCc2ccccc2)C[C@@H]2CC[C@H]1N2C(=O)NCc1cccc(F)c1
  A: 0.6%; B: -13%; C: x; D: x

compound: COC(=O)C1=C(c2cc3ccccc3o2)C[C@@H]2CC[C@H]1N2C(=O)NCc1ccc(C(F)(F)F)cc1
  A: 5.0%; B: 0%; C: x; D: x

compound: O=P(N1CC1)(N1CC1)N1CCc2ccccc21
  A: 3.0%; B: -19%; C: x; D: x

compound: COC(=O)C1=C(c2ccc(F)cc2OCc2ccccc2)C[C@@H]2CC[C@H]1N2C(=O)NCc1ccccc1Cl
  A: -3.0%; B: -6%; C: x; D: x

compound: Cc1cccc(-n2c(O)c(C)c(=O)[nH]c2=S)c1
  A: -0.1%; B: 6%; C: -4; D: 9%

compound: CCCCCCC(=O)N/N=C/c1c(O)n(CCCC)c(=S)[nH]c1=O
  A: -0.2%; B: 16%; C: -14; D: 0%

compound: COc1cccc(NC(=O)CN2CC(c3ccccc3)CC2=O)c1 (stereo not drawn)
  A: 0.6%; B: -7%; C: -1; D: 0%

compound: O=C1CC(=O)N(c2cccc(Cl)c2)C(=O)N1
  A: 1.7%; B: 3%; C: 4; D: -1%

compound: CC(=NCC1CCCO1)c1c(O)n(-c2ccccc2)c(=O)[nH]c1=O (stereo not drawn)
  A: -0.6%; B: 9%; C: -10; D: -7%

compound: CCCCC(CC)COC(=O)c1ccccc1C(=O)OCC(CC)CCCC (stereo not drawn)
  A: 0.8%; B: u; C: x; D: x

compound: C/C(=N\N=C(N)N)c1ccccc1
  A: 0.1%; B: 11%; C: -2; D: 0%

compound: COc1ccc([N+](=O)[O-])cc1N=Cc1c(O)n(CCc2ccccc2)c(=O)n(C(C)C)c1=O
  A: 5.4%; B: 7%; C: -6; D: -6%

compound: COc1ccc(N2C(=O)NC(=O)C(CCc3ccncc3)(CCc3ccncc3)C2=O)cc1
  A: -1.5%; B: 2%; C: -2; D: -8%

compound: C[n+]1c(-c2ccccc2)cc(-c2ccc(Cl)cc2)cc1-c1ccccc1
  A: 3.1%; B: -1%; C: 3; D: u

compound: COc1ccc(NC(=O)c2cn(CCC#N)nc2-c2ccc(OC)c(OC)c2)cc1
  A: 4.9%; B: 1%; C: x; D: -6%

compound: c1ccc2c(c1)[IH]c1ccccc1-2
  A: -1.9%; B: 0%; C: x; D: x

compound: O=C(Nc1ccc2ccccc2c1)c1nn(C23CC4CC(CC(C4)C2)C3)cc1Br
  A: -2.0%; B: 4%; C: 7; D: -9%

compound: Cc1ccc(OCC(=O)N2CCN(Cc3ccc4c(c3)OCO4)CC2)cc1
  A: 8.7%; B: 2%; C: 2; D: 6%

compound: O=C(O)C1Cc2ccccc2N2CCCC12 (stereo not drawn)
  A: u; B: u; C: x; D: 0%

compound: CC(=O)OC12COC1CC(O)C1(C)C(=O)C(O)C3=C(C)C(O)CC(O)(C(OC(=O)c4ccccc4)C21)C3(C)C (stereo not drawn)
  A: 0.1%; B: -2%; C: x; D: x

compound: CCN1CC=C(c2c[nH]c3ccccc23)CC1
  A: -3.8%; B: 1%; C: 3; D: -1%

compound: CC(C)(C)C(=O)O[C@H]1CC[C@@]2(C)C(=CC(=O)C3C2CC[C@]2(C)C(=O)[C@H](O)CC32)C1 (stereo partly drawn)
  A: -0.5%; B: -11%; C: x; D: x

compound: NS(=O)(=O)c1ccc(N=Cc2c(O)n(C3CCCCC3)c(=O)n(C3CCCCC3)c2=O)cc1
  A: 4.9%; B: 3%; C: 0; D: u

compound: NC(=S)/N=C/c1c(O)[nH]c(=O)[nH]c1=O
  A: u; B: -4%; C: 0; D: -3%

compound: Cc1cccc(N2C(=O)NC(=O)/C(=C/c3ccc(-c4ccc(C(=O)O)c(Cl)c4)o3)C2=O)c1
  A: x; B: x; C: 6; D: -2%

(next part)
The line under a structure holds: Rango complex inh | Rango release inh | GLA inh pH 4.5 | miR-21 reporter
c1ccc(-c2nc(N3CCOCC3)s[n+]2-c2ccccc2)cc1
 : -0.7% | 7% | 3 | -86%
NC(=O)c1ccsc1NC(=O)COC(=O)Cc1ccccc1
 : 3.1% | 10% | x | x
Cc1c(C(=O)N2CCOCC2)sc2nc(-c3ccccc3)cn12
 : -1.5% | 1% | -4 | -50%
N#Cc1ccccc1Cn1cc(C(=O)C2CC2)c2ccccc21
 : 0.0% | 0% | -1 | -1%
Cn1nc(OC(=O)Nc2ccccc2)cc1C(F)(F)F
 : x | x | 1 | -32%
COc1cc(C(c2c(C)[nH]n(-c3ccccc3)c2=O)c2c(C)[nH]n(-c3ccccc3)c2=O)cc(OC)c1OC
 : 1.7% | 10% | -2 | -4%
COc1ccc(-n2c(-c3ccc(C)cc3)nc3ccccc3c2=O)cc1
 : -4.8% | -4% | -2 | -37%
O=c1[nH]c(=S)n(-c2ccc(Br)cc2)c(O)c1C=Nc1ccc(N2CCOCC2)cc1
 : u | u | -2 | -13%
C/C(=N\OC(=O)NC(C)C)c1sc(-c2ccc(Cl)cc2)nc1C
 : -1.2% | -3% | -1 | -19%
CCc1ccc(N2C(=O)CC(=O)NC2=O)cc1
 : 0.7% | 0% | x | -2%
Cc1cccc(CNCCc2c[nH]c3ccccc23)c1
 : -0.6% | 7% | x | -7%
CC(CC(C)(C)N1CC1)=NNC(=O)Nc1cccc2ccccc12
 : -0.4% | 1% | x | x
CCOC(=O)CC(SP1(=S)OCC2(CC=CCC2)CO1)C(=O)OCC (stereo not drawn)
 : -0.7% | -4% | x | x
Cc1cc(C(=O)OCC(=O)Nc2ccc(F)cc2)c(C)n1C1CC1
 : -4.1% | 11% | x | x
O=c1cccc2n1C[C@@H]1C[C@@H]2CN(CC(O)c2ccc([N+](=O)[O-])cc2)C1 (stereo partly drawn)
 : -0.2% | 1% | x | 0%
COc1ccc(C2=NCC(=O)N(CC(=O)NCc3ccco3)c3sc4c(c32)CCCC4)cc1OC
 : -6.3% | 13% | 3 | 13%
CC1CCCN(C(=O)CCl)C1 (stereo not drawn)
 : -3.4% | 14% | -2 | 4%
CC1C(c2cccs2)=[N+]([O-])C(C)(C(=O)c2ccc(Cl)cc2)N1O (stereo not drawn)
 : 0.3% | 8% | x | x
CCOc1ccc(-n2c(O)c(C=Nc3ccc(N4CCOCC4)cc3)c(=O)[nH]c2=O)cc1
 : u | u | -1 | 3%
O=P(c1ccccc1)(c1ccccc1)N1CCCCC1
 : -0.8% | 0% | 6 | 0%
CCOc1ccc(C2SCC(=O)Nc3c2c(=O)[nH]n3C2CCCCCC2)cc1 (stereo not drawn)
 : 2.5% | -13% | -8 | -6%
COCC(=O)N1Cc2ccccc2-n2nncc2C1
 : -3.6% | 8% | x | x
O=C1CN=C(c2ccc(Br)cc2)c2oc3ccccc3c2N1
 : -4.0% | 13% | -1 | -5%
Nc1cccc(N=Cc2c(O)n(Cc3ccc(F)cc3)c(=O)[nH]c2=O)c1
 : 0.4% | -21% | 5 | -3%
S=C1NCCN1
 : 4.7% | -7% | x | -7%
FC(F)(F)c1cccc(-n2nnnc2C2(N3CCOCC3)CCCCC2)c1
 : 0.8% | 9% | -1 | 0%
Cc1c(C(c2ccccc2Cl)c2c(O)c3ccccc3oc2=O)c(=O)n(-c2ccccc2)n1C (stereo not drawn)
 : 0.0% | 17% | -4 | -3%
Nc1c(C(=O)NCCCc2ccccc2)c2nc3ccccc3nc2n1Cc1cccs1
 : u | u | 13 | 2%
C/C=C1/CC(C)C(C)(O)C(=O)OCC2CCN3CCC(OC1=O)C23 (stereo not drawn)
 : -1.4% | -25% | -16 | 0%
Cc1nn(Cc2ccccc2)c(C)c1C(=O)NCc1ccccc1
 : -2.7% | 1% | -6 | -4%
COc1cc(/C=N/NC(=O)CN2CC(c3ccccc3)CC2=O)ccc1OC(=O)N(C)C (stereo not drawn)
 : 0.1% | 0% | -5 | -5%
CN(C)S(=O)(=O)c1cccc(C(=O)N2CCC(C(=O)O)(c3ccccc3)CC2)c1
 : 5.1% | 1% | x | -3%
C[C@]12CCC3C(CCC4=CC(O)CC[C@@]43/C=N/O)C1(O)CCC2C1=CC(=O)OC1 (stereo partly drawn)
 : 4.0% | 9% | x | u
CC1CCN(C(=O)c2ccc(N3CC4CC(C3)c3cccc(=O)n3C4)c([N+](=O)[O-])c2)CC1 (stereo not drawn)
 : -4.2% | 5% | 11 | -10%
COc1cc(OC)cc(C(=O)NC(=S)N2C[C@H]3C[C@H](C2)c2cccc(=O)n2C3)c1
 : 0.1% | -1% | x | -2%
COC(=O)CC1(Cc2ccccc2)C(=O)NC(=O)NC1=O
 : 3.3% | -15% | 7 | -2%
COc1ccccc1N1CCN(C2CCCN(C(=O)COc3ccccc3Cl)C2)CC1 (stereo not drawn)
 : 2.8% | 22% | x | 12%
Nc1ccc(-c2ccc(N)cc2)cc1
 : -1.4% | -9% | x | x

As a working copy, 16 of the compounds above.
The line under a structure holds: Rango complex inh | Rango release inh | GLA inh pH 4.5 | miR-21 reporter
O=P(c1ccccc1)(c1ccccc1)N1CCCCC1
 : -0.8% | 0% | 6 | 0%
CCOc1ccc(C2SCC(=O)Nc3c2c(=O)[nH]n3C2CCCCCC2)cc1 (stereo not drawn)
 : 2.5% | -13% | -8 | -6%
COCC(=O)N1Cc2ccccc2-n2nncc2C1
 : -3.6% | 8% | x | x
O=C1CN=C(c2ccc(Br)cc2)c2oc3ccccc3c2N1
 : -4.0% | 13% | -1 | -5%
Nc1cccc(N=Cc2c(O)n(Cc3ccc(F)cc3)c(=O)[nH]c2=O)c1
 : 0.4% | -21% | 5 | -3%
S=C1NCCN1
 : 4.7% | -7% | x | -7%
FC(F)(F)c1cccc(-n2nnnc2C2(N3CCOCC3)CCCCC2)c1
 : 0.8% | 9% | -1 | 0%
Cc1c(C(c2ccccc2Cl)c2c(O)c3ccccc3oc2=O)c(=O)n(-c2ccccc2)n1C (stereo not drawn)
 : 0.0% | 17% | -4 | -3%
Nc1c(C(=O)NCCCc2ccccc2)c2nc3ccccc3nc2n1Cc1cccs1
 : u | u | 13 | 2%
C/C=C1/CC(C)C(C)(O)C(=O)OCC2CCN3CCC(OC1=O)C23 (stereo not drawn)
 : -1.4% | -25% | -16 | 0%
Cc1nn(Cc2ccccc2)c(C)c1C(=O)NCc1ccccc1
 : -2.7% | 1% | -6 | -4%
COc1cc(/C=N/NC(=O)CN2CC(c3ccccc3)CC2=O)ccc1OC(=O)N(C)C (stereo not drawn)
 : 0.1% | 0% | -5 | -5%
CN(C)S(=O)(=O)c1cccc(C(=O)N2CCC(C(=O)O)(c3ccccc3)CC2)c1
 : 5.1% | 1% | x | -3%
C[C@]12CCC3C(CCC4=CC(O)CC[C@@]43/C=N/O)C1(O)CCC2C1=CC(=O)OC1 (stereo partly drawn)
 : 4.0% | 9% | x | u
CC1CCN(C(=O)c2ccc(N3CC4CC(C3)c3cccc(=O)n3C4)c([N+](=O)[O-])c2)CC1 (stereo not drawn)
 : -4.2% | 5% | 11 | -10%
COc1cc(OC)cc(C(=O)NC(=S)N2C[C@H]3C[C@H](C2)c2cccc(=O)n2C3)c1
 : 0.1% | -1% | x | -2%

Screening data as filed in PubChem BioAssay.
